Screens from PubChem BioAssay.
UUG fidelity = alters start codon recognition fidelity in yeast. S. cerevisiae UUG-firefly luciferase reporter, luminescence/redox ratio. activity score, % at 18.7 µM. 0.13% of 350,000 active. AID 602363;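 active = replicate mean at a twofold rise or more, about +100% in these data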;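 also: firefly luciferase made from a UUG start codon reports start codon fidelity; reporter light over untreated wells divided by growth signal over untreated wells; some hits fall short of that in this replicate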
eIF4H FP inh = inhibitors of RNA binding by human eIF4H | eIF4H fluorescence polarization binding assay | AID 2012 | 0.94% of 290,000 active | inhibition, % at 35 µM;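 active = 50% or more with normal probe brightness, or confirmed in later tests; inconclusive = above 50% with abnormal brightness, or retests that disagree; inactive = below 50% or failed in later tests; about a fifth of its hits are not listed in these tables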;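 also: calls also rest on retests at 20 µM and on dose response follow-up; 0% = protein and probe with vehicle and 100% = probe without protein; strong numbers were not always called active; many hits fall short of the cut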
CSC inhib = blocks cancer stem cells; cancer stem cell-like cells viability, luminescence; inhibition, % at 7.5 µM; 1.1% of 300,000 active; AID 2717;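 active = mean at 75% or more and at least half the replicates too; inconclusive = mean and replicates disagree; tested in HMLE shEcad cells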;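 also: 0% = median of negative and 100% = median of positive control wells; the first replicate is given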
PABP FP inh = blocks human PABP binding to poly(A) RNA; P11940; fluorescence polarization; inhibition, % at 35 µM; 1% of 290,000 active;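 active = 50% or more with normal probe brightness, or confirmed in later tests; inconclusive = above 50% with abnormal brightness, or retests that disagree; inactive = below 50% or failed in later tests; about a fifth of its hits are not listed in these tables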;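 also: calls also rest on retests at 20 µM and on dose response follow-up; controls were probe without protein and protein plus probe with vehicle; some compounds called inactive have numbers as strong as hits; many hits fall short of the cut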
Rce1 inh = blocks yeast Ras-converting enzyme; yeast membranes, quenched prenylated peptide cleavage fluorescence; Q03530; calls only; 0.27% of 290,000 active;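 active = fall in fluorescence gain of 50% or more versus controls, with final raw signal at or below 3038400; inconclusive = same 50% fall but final raw signal above 3038400; inactive = fall in fluorescence gain under 50%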;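 also: plate controls were neutral control wells for no effect and wells lacking membranes for full effect; tested at 10 µM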
Target sequence (Q03530 whole entry, looked up): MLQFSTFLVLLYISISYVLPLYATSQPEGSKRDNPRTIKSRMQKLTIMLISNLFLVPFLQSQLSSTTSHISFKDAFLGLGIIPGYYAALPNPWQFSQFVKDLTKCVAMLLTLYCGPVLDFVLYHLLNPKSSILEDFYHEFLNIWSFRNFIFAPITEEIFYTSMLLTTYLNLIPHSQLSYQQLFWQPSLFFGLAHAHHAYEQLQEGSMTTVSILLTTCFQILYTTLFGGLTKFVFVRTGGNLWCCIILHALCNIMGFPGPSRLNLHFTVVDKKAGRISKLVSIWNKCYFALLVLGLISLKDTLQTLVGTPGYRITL
MT1-MMP act inh = MT1-MMP (human) activation inhibition. 0.061% of 360,000 active. P50281. GFP/RFP ratio change, % at 20 µM. HT1080 RFP-PRO-GFP cells, GFP/RFP ratio fluorescence, overnight; percent of plate control window, DMSO zero;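 active = GFP/RFP ratio change of at least 30% with cell ATP level not reduced by more than half and red fluorescence within 50% of control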; also: strong numbers were not always called active
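Assay system: RFP-PRO-GFP reporter HT1080 cells; read-out basis: GFP/RFP fluorescence ratio; benchmarks: DMSO wells and RFP-L50D-GFP cells; doses: 20 µM single dose, 1% DMSO; schedule: overnight cell settling, then overnight compound exposure, 37 °C, 5% CO2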
Env fusion inh = HIV envelope-mediated fusion inhibition | HeLa-JRFL Env/CEM21 cell fusion, luciferase | inhibition, % at 12.3 µM | 1.1% of 360,000 active;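 active = mean replicate inhibition score of at least 50 and every replicate individually at or above 50; inconclusive = only one of the two criteria met; inactive = mean below 50 and not all replicates reaching 50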;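 also: 0% = plate neutral controls and 100% = maraviroc near 300 nM; one replicate is shown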
MT1-MMP act inh RFP = also measured in MT1-MMP act inh; calls as there; RFP signal change, %; measured here: RFP expression control read;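 0 = vehicle wells; hits needed this value within 50% of zero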
The depositor's hits bear a star; i = inactive; ? = inconclusive; . = no result given.

SMILES	UUG fidelity	eIF4H FP inh	CSC inhib	PABP FP inh	Rce1 inh	MT1-MMP act inh	MT1-MMP act inh RFP	Env fusion inh
COc1ccc(C(=O)N(C)C2CCCc3ccccc32)cc1OC1CCN(C(C)C)CC1 (stereo not drawn)	9	27	-6	9	i	-2	1	-6
O=C(c1ccco1)N1CCN(c2nnc(-c3ccccc3)c3ccccc23)CC1	3	3	-1	-4	i	-2	-11	26
CCN(C(=O)Cc1cccs1)c1nnc(-c2cccnc2)s1	-2	9	.	3	.	-9	3	-51
O=C(c1ccc(Cl)c(S(=O)(=O)N2CCOCC2)c1)N1CCN(c2ccccc2F)CC1	-7	-20	-6	-2	i	1	-5	.
CC(=O)NC1=NN(C(C)=O)C(C)(CCS(=O)(=O)c2ccc(Br)cc2)S1 (stereo not drawn)	-14	1	-3	-1	i	6	5	-30
CC(=O)N1CCN(Cc2nc3cc([N+](=O)[O-])ccc3n2C)CC1	-19	2	-6	0	i	-1	3	-11
O=C(NCc1cccc(F)c1)C1CCC(=O)N(C2CCCC2)C1 (stereo not drawn)	-15	-2	-13	19	i	-2	2	-7
COc1ccc(-c2nnc(SCC(=O)Nc3ncc(C(F)(F)F)cc3Cl)n2CC(C)C)cc1	-12	-11	-7	-6	i	1	0	-12
CCOC(=O)C1CCN(CC(=O)c2ccc(O)c(C)c2O)CC1	-10	6	-3	9	i	-3	0	-8
CC(CCN(C)C)OC(=O)c1ccc(C(C)c2ccccc2)o1 (stereo not drawn)	-11	-6	47	-3	i	-5	0	.
O=C(NC1CCCCCC1)C(=O)NC1CCCC1	.	0	-12	10	i	-1	2	-21
CC(NC(=O)c1ccc(Cl)c(S(=O)(=O)N2CCCCCC2)c1)c1cccnc1 (stereo not drawn)	-32	.	-10	.	.	7	-13	-5
CCOCc1c(C(=O)NC2=Nc3ccccc3NC(CC)=C2C(=O)OCC)oc2ccccc12	.	-10	43	16	i	-27	-18	21
COc1cccc(CNc2ccc(S(=O)(=O)N3CCN(C)CC3)cn2)c1	-5	.	-6	.	.	-4	-2	.
COc1ccc(CCNC(=O)c2[nH]c(C)c(C(C)=O)c2C)cc1OC	-10	-7	-7	-10	i	3	5	-2
COc1ccc(CCC(=O)Nc2nnc(C(F)(F)F)s2)cc1	-9	-10	-5	-9	i	4	5	-6
O=C(Nc1cccc2ncccc12)c1cccc(Br)c1	-8	6	0	2	i	-5	1	2
CC(=O)c1ccc(Nc2cc(C)nc3c(C)cccc23)cc1	-5	-11	54	-13	i	-7	-9	-37
COc1cc(NC(=O)N[C@@H](CCSC)C(=O)O)cc(OC)c1	.	-13	2	9	i	-4	-1	11
O=C(/C=C/c1ccc(F)cc1)NC(=S)NC1CCCCC1	.	1	-4	1	i	5	3	10
Cc1ccc(C(=O)CCC(=O)OCC(=O)Nc2ccc3[nH]c(=O)[nH]c3c2)cc1	-9	.	0	.	i	-2	2	1
Cc1cc(NC(=O)c2c([N+](=O)[O-])c(C)nn2C)no1	-4	0	-6	-6	i	-1	6	.
Cc1ccc(S(=O)(=O)NCC(=O)Nc2ccc3c(c2)OCCO3)cc1	-7	-4	3	2	i	1	3	6
CN(C)S(=O)(=O)c1ccc(N2CCCC2)c(C(=O)Nc2nccs2)c1	-2	.	4	.	.	-1	-5	.
CCN(CC)S(=O)(=O)c1ccc(N2CCN(CCOc3ccc(OC)cc3)CC2)nc1	-10	4	-13	4	i	0	-14	7
COC(=O)c1ccc(NC(=O)CSCC(=O)OCC(=O)c2ccc(Br)cc2)cc1	-12	-1	2	10	i	2	-1	-42
O=C(NCCN1C(=O)CSC1=O)C1CC(=O)N(c2ccccc2)C1 (stereo not drawn)	-1	2	-25	0	i	1	-4	-93
COc1ccc(CCNC(=O)c2cccc(NC3=NC4CS(=O)(=O)CC4S3)c2)c(OC)c1 (stereo not drawn)	-21	-1	.	-7	i	-1	2	-5
Cc1nnnn1CC(=O)Nc1ccccc1[N+](=O)[O-]	.	-9	-10	-5	i	1	7	-1
COc1ccc(CNC(=O)Cn2ccc(N)nc2=O)cc1	-24	.	1	.	.	6	5	-12
COc1ccc(CC(=O)OCC(=O)NC2CCCCC2)cc1OC	6	.	.	.	.	-4	-3	5
COc1ccc(-c2cc(C)no2)cc1S(=O)(=O)N(C)c1ccc(C)c(C)c1	-17	-11	23	-12	i	3	-8	-5
CCc1ccc2[nH]c(=O)c(CN(CC3CCCO3)C(=S)NCc3ccco3)cc2c1 (stereo not drawn)	.	5	-7	8	i	-4	-1	-2
Cc1ccc(-c2nn(-c3cccc(F)c3)cc2CN2CCN(c3ccccn3)CC2)o1	-10	5	8	-5	i	2	-3	17
COc1cccc(C2=CC(c3cccs3)n3nnnc3N2)c1 (stereo not drawn)	-18	0	54	10	i	-82	-6	23
O=C(CCC1CCCC1)Nc1cccn(Cc2ccccc2Br)c1=O	17	3	2	6	i	2	2	-20
O=C(N/N=C/c1cccc([N+](=O)[O-])c1)c1ccc(CN2CCOCC2)cc1	1	-13	-1	9	i	4	0	-91
CC(C)(C)NC(=O)NC(=O)CN1CCCCCCC1	.	2	12	-6	.	-2	1	2
COc1ccc(Cl)cc1NC(=O)C(C)N(C)Cc1cccc(Cl)c1Cl (stereo not drawn)	.	-9	-12	12	i	-1	-2	22
CCOc1ccccc1NC(=O)CCS(=O)(=O)c1cccs1	-19	-10	-1	-7	i	1	2	6
COc1ccc(/C=C/C(=O)O)cc1S(=O)(=O)N1CCCCC1	-1	7	5	-1	i	-3	1	-24
CCOc1ccc(NC(=O)CC2Nc3ccccc3NC2=O)cc1 (stereo not drawn)	.	-4	.	-8	i	5	6	-12
Clc1ccc(-c2cn(-c3ccccc3)c3[n+]2CCS3)cc1	.	-6	.	-14	i	-1	-12	6
COc1ccc(-n2c(SCC(=O)NCc3ccco3)nnc2-c2c[nH]c3ccccc23)cc1	6	4	-12	6	i	-1	-4	-28
CC(C)c1ccc(-n2nnnc2SCC(=O)NC2CC2)cc1	-9	.	.	.	.	4	0	64*
CCN1C[C@@H]2[C@@H]3C(=O)N(C)C(=O)[C@@H]3[C@](Cc3ccccc3)(C1=O)N2C(=O)c1ccccc1	6	.	.	.	.	2	5	-15
CC(=O)Nc1c(Br)cc2c(c1Br)Cc1cc(Br)ccc1-2	-6	.	.	.	.	-4	-1	-167
COC(=O)/C=C1\C(=O)N(c2nc3ccc(OC)cc3s2)C(=S)N1c1ccc(F)cc1	.	6	.	-12	i	.	.	.
CC1CCc2c(sc3nc4n(c(=O)c23)CCS4)C1 (stereo not drawn)	-11	-11	.	-3	i	8	7	-153
COc1ccccc1OCc1nc(C#N)c(N2CC(C)CC(C)C2)o1 (stereo not drawn)	-16	9	12	-2	i	2	-8	-3
CCCCOCCCNS(=O)(=O)Cc1ccccc1	-26	0	-1	0	i	1	3	16
COCCN(C(=O)COc1ccc(Cl)cc1)c1nnc(-c2cccnc2)s1	-2	11	0	-1	i	1	3	.
Cc1cc(OCC(=O)Nc2c(C(C)C)cccc2C(C)C)no1	14	.	.	.	.	3	0	5
CCOC(=O)c1sc(NC(=O)CSc2nnc(-c3ccc(OC)cc3)n2CCOC)nc1C	10	-3	-8	-3	i	4	7	-73
CC(C)C1(C)C(=O)N=C2c3ccccc3C(=O)N21 (stereo not drawn)	-21	5	6	-10	i	-11	-8	.
O=C(COC(=O)c1cc(Cl)ccc1[N+](=O)[O-])Nc1cccc2ccccc12	.	3	-5	13	i	6	10	-6
Cc1nc2c(C(=O)NCCC(C)C)c[nH]n2c(=O)c1Cl	.	-5	18	-2	i	1	1	-7
CCCCC(=O)Nc1ccc(NC(=O)C2CC2)nc1	-20	11	12	12	i	-1	7	-3
Cc1ccc(-n2c(-c3cc(C)n(C)n3)n[nH]c2=S)cc1	-27	-5	-11	3	i	2	6	.
CCCNC(=O)C1CCN(S(=O)(=O)c2cccs2)CC1	.	2	0	-6	i	-2	2	6

A second format for part of the listing above:
The line under a structure holds: UUG fidelity	eIF4H FP inh	CSC inhib	PABP FP inh	Rce1 inh	MT1-MMP act inh	MT1-MMP act inh RFP	Env fusion inh
> Cc1cc(OCC(=O)Nc2c(C(C)C)cccc2C(C)C)no1
 : 14	.	.	.	.	3	0	5
> COCCN(C(=O)COc1ccc(Cl)cc1)c1nnc(-c2cccnc2)s1
 : -2	11	0	-1	i	1	3	.
> CCCCC(=O)Nc1ccc(NC(=O)C2CC2)nc1
 : -20	11	12	12	i	-1	7	-3
> Cc1nc2c(C(=O)NCCC(C)C)c[nH]n2c(=O)c1Cl
 : .	-5	18	-2	i	1	1	-7

Further records.
SMILES	UUG fidelity	eIF4H FP inh	CSC inhib	PABP FP inh	Rce1 inh	MT1-MMP act inh	MT1-MMP act inh RFP	Env fusion inh
Fc1ccc(F)c(C2=NNC(=Nc3ccccc3F)SC2)c1	-23	-17	20	6	i	-9	-24	-54
Cc1c(OCC(=O)NCC2CCC(C(=O)O)CC2)ccc2c(-c3ccccc3)cc(=O)oc12 (stereo not drawn)	-12	2	-10	23	i	3	-1	.
O=C(Cc1ccccc1)Nc1ccccc1C(=O)N1CCN(c2ccccc2)CC1	-18	4	2	-2	i	-2	2	6
CCC(=O)Nc1cc2nn(-c3ccccc3)nc2cc1Cl	-15	4	.	5	i	12	3	-309
O=C(c1ccco1)N1CCN(c2ccnc3cc(Cl)ccc23)CC1	.	-12	-3	5	i	-1	-1	16
CCNC(=O)C1(C)CCCN(C(=O)c2cc(C)nn2C(C)(C)C)C1 (stereo not drawn)	13	.	.	.	.	1	1	-3
Cc1cc(C)n(Cc2ccc(F)cc2)c(=O)c1C#N	-16	0	3	-3	i	-5	2	.
COc1ccccc1CN1CCC(n2nccc2NC(=O)CCc2ccccc2)CC1	-6	-13	-10	-7	i	0	4	5
Cn1c(=O)c2ccccc2n(CC(=O)NCCC2=CCCCC2)c1=O	-12	-7	-4	7	i	0	-2	12
CCN(CC(=O)Nc1ccccc1OC)C(=O)CN1C(=O)NC(C)(c2ccc(C)cc2)C1=O (stereo not drawn)	-8	.	.	.	.	4	-1	1
CC(=O)Nc1nc2ccc(-c3nc4ccccc4o3)cc2s1	-35	0	46	6	i	7	-5	-130
Cc1cc(N2C(=O)C(O)=C(C(=O)c3cc4ccccc4o3)C2c2ccc([N+](=O)[O-])cc2)no1 (stereo not drawn)	-29	-1	2	15	i	-6	2	-2
CCCN(Cc1cc2cc(OC)ccc2[nH]c1=O)C(=O)c1ccco1	-3	-10	5	2	i	1	2	13
Cc1c(NC(=O)C2C3C=CC(C3)C2C(=O)O)c(=O)n(-c2ccccc2)n1C (stereo not drawn)	.	8	-1	-7	i	5	1	.
COc1ccc(CNC(=O)Cn2nc([N+](=O)[O-])cc2C)cc1	-10	1	-4	-6	i	-2	0	11
CN(C)c1ccc(C(=O)Nc2ccc(S(=O)(=O)Nc3nccs3)cc2)cc1	-27	-7	-4	-13	i	1	4	.
CCOc1ccc(Oc2ccccc2NC(=O)CSCC(=O)Nc2cc(C)on2)cc1	-7	.	6	.	i	-5	-29	4
COC(=O)C[C@H]1c2cc(F)ccc2S(=O)(=O)N1Cc1ccccc1OC	-5	.	-13	.	i	1	2	6
O=c1oc(-c2ccc(F)cc2)nc2ccsc12	-24	-10	-10	-4	i	2	3	-10
CC(=O)Nc1ccc(NC(=O)c2cccc(S(=O)(=O)N3CCCCCC3)c2)cc1	-7	.	13	.	.	4	-3	15
O=S(=O)(c1cccs1)N1CCN(Cc2ccccc2)CC1	-11	7	-12	4	i	1	3	-8
O=C1CCC(c2ccc3c(c2)CCC3)=NN1	.	-7	-8	0	i	4	3	?

Not all compounds are listed (hit frequency here may not be typical).
